High-throughput results (PubChem)
KSHV LANA nucl: inhibitors of KSHV LANA binding to nucleosomes | FITC-LANA1-23 / chicken nucleosome fluorescence polarization; active compounds read low | z-score (test concentration not listed) | 51,000 tested, 0.3% active;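 active = both repeat wells score below -2 in polarization z-score versus plate sample wells, excluding overly bright wells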;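 also: 100 nL library stock added to about 30 µL; numbers are from one replicate; some results filed as inactive read as strong as hits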
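Material: Purified chicken nucleosomes with FITC-labelled LANA N-terminal peptide (1-23) | Reagent: 50 nM FITC-LANA1-23 probe | Medium: TEN-BT buffer, pH 7.5 | Times: 10–45 min incubation at room temperature | Detection: Fluorescence polarization | Replication: Duplicates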
Ab BasE inh: BasE siderophore biosynthesis inhibition; purified BasE, fluorescence polarization binding displacement; inhibition, % (no concentration beside the values); 84,000 tested, 0.1% active;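 active = both replicates above 25% with normal brightness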;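 also: 0% = negative plate control signal and 100% = positive plate control signal; stock transfer was 100 nL into about 30 µL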
* marks the source's active call; other numbers are inactive results; . = no result given.

SMILES | KSHV LANA nucl | Ab BasE inh
O=C(COn1nnc2ccc(Cl)cc21)NC1CCCc2ccccc21 (configuration not stated) | . | 2.0
O=C(CCc1nc2ccccc2s1)OCc1nc2ccccc2s1 | . | -2.8
COc1ccccc1NC(=O)C1=C(C)NC2=C(C(=O)CC(c3ccc(OC)c(OC)c3)C2)C1c1ccc(C)o1 (configuration not stated) | -0.35 | -1.4
O=C(Nc1ccc2c(c1)OCO2)C1c2ccccc2Oc2ccccc21 | . | -0.2
O=C(/C=C/c1ccccc1)NC(=S)Nc1ccc(C(F)(F)F)cc1 | . | 1.5
Cc1ccc(C(=O)Nc2ncc(Cl)cn2)cc1 | 0.49 | .
CC(C)Nc1nc2c(S(=O)(=O)c3ccccc3)nnn2c2ccsc12 | -1.4 | 2.1
Cc1coc2cc3oc(=O)c(CC(=O)O)c(C)c3cc12 | -0.85 | 1.7
O=C(N/N=C1/C(=O)c2cccc3cccc1c23)c1ccc(O)cc1 | . | 2.7
COc1ccc(-c2n[nH]c(=S)o2)cc1OC | . | -3.7
N#C/C(=C\c1ccc(-c2ccc(F)cc2)o1)C(=O)NCCc1ccccc1 | . | -0.2
COc1ccc(C(=O)N2CCCC(C(=O)N3CCCCCC3)C2)cc1 (configuration not stated) | . | 0.3
Cc1cccc(OCCCC(=O)N2CCN(S(=O)(=O)c3ccc4c(c3)OCCO4)CC2)c1 | . | -1.2
N#C/C=C/N1CCC(CCCC2CCN(/C=C/C#N)CC2)CC1 | . | 0.3
O=C(CN1C(=O)c2ccccc2C1=O)OCc1ccccc1 | 0.7 | 5.7
CCn1c(=N)c(S(=O)(=O)c2ccc(C)cc2)cc2c(=O)n3ccccc3nc21 | 0.64 | -3.1
C/C(N)=C(/C#N)C(=O)CSc1nnc(-c2ccc(Cl)cc2)n1CC1CCCO1 (configuration not stated) | . | -0.2
C=CCN1Cc2ccc3ccccc3c2-c2c(ccc3ccccc23)C1 | 0.64 | .
CCC(=O)Nc1ccc(C(=O)N2CCN(CC)CC2)cc1 | 0.051 | 1.7
CC1CCN(C(=O)C2CCN(c3nnc(-n4cccc4)s3)CC2)CC1 | 0.14 | -2.4
O=C(OCN1C(=O)c2ccccc2C1=O)c1ccc2ncsc2c1 | . | 1.0
Cc1ccc(C)c(OCC(=O)N(Cc2nnc(-c3ccc(Cl)cc3)o2)C2CC2)c1 | . | 2.5
Cc1csc(C(C#N)C(=O)CSc2nc3ccccc3n2-c2ccccc2)n1 (configuration not stated) | . | 35*
CCOC(=O)c1c(C)[nH]c(C(=O)Cn2ncc(Cl)c(Cl)c2=O)c1C | . | -2.7
c1ccc(CN2CCC(Nc3ncnc4sccc34)CC2)cc1 | . | -1.5
(further entries)
SMILES | KSHV LANA nucl | Ab BasE inh
O=C([C@H](Cc1ccccc1)N1Cc2ccccc2C1=O)N1CCN(c2ccc(F)cc2)CC1 | -0.44 | 1.7
CC(=O)N1CC(=O)N(O)C1c1ccc(Cl)cc1Cl (configuration not stated) | -0.44 | 5.8
O=C(NCc1cc2ccccc2s1)c1ccccc1N1CCOCC1 | -0.22 | .
COC(=O)C(N)Cc1ncc(C(F)(F)F)cc1Cl (configuration not stated) | 0.13 | .
CC1CCCCC1Nc1nc2ccccc2n2nnnc12 (configuration not stated) | -0.23 | 5.2
CCOC(=O)COc1cccc2c(=O)n(CC(=O)NCc3ccc4c(c3)OCO4)ccc12 | -1 | 0.6
O=C(Nc1nnc(C2CC2)s1)C1Cc2ccccc2CN1S(=O)(=O)c1ccccc1F (configuration not stated) | . | -0.4
CN(c1ccccc1)S(=O)(=O)c1cccc(C(=O)OCc2nnc(-c3ccccc3)o2)c1 | . | -0.8
CC1C(O)CCC1(C(=O)O)c1ccccc1 (configuration not stated) | -0.051 | 2.1
Cc1ccccc1-c1noc(-c2nnn(-c3ccc(C(F)(F)F)c(Cl)c3)c2N)n1 | 1.6 | -2.0
Cc1ccc2nc(-c3ccc(Br)o3)c(Nc3ccc4c(c3)OCCO4)n2c1 | -1.5 | 2.6
COc1ccc(NC(=O)CCc2nc3cccnc3n2Cc2cccs2)cc1OC | 0.18 | -3.7
CCCN(CC1CC1)C(=O)CSc1nc2ccccc2[nH]1 | . | -0.4
N#Cc1cn(Cc2ccccc2)c2ccccc12 | -0.097 | -2.6
Cc1ccc2c(CC(=O)NCC3COc4ccccc4O3)coc2c1 (configuration not stated) | . | 0.8
N#CC(C(=S)Nc1ccccc1)c1nc2ccccc2[nH]1 (configuration not stated) | . | 1.8
C=CCN(CC=C)C(=S)Nc1ccc(S(=O)(=O)N2CCOCC2)cc1 | . | -1.4
COc1ccc(NC(=O)c2ccccc2OC)cc1OC | -0.36 | -2.0
Cc1ccc(-c2noc(CN(C(=O)CCc3ccccc3)C(C)C)n2)cc1 | -0.8 | 1.1
COC(=O)c1ccc(S(=O)(=O)NNc2c(Cl)cncc2Cl)n1C | 0.23 | -0.6
O=C1CC(c2ccccc2)c2c(ccc3ccccc23)N1 (configuration not stated) | . | 0.6
C=CCn1c2ccccc2c2nnc(SCC(=O)OCN3C(=O)c4ccccc4C3=O)nc21 | 0.033 | 0.8
COc1ccc(CCNC(=O)c2ccc(OC)cc2)cc1 | 0.25 | 0.2
O=C(CCn1c(=O)c2cccn2c2ccccc21)Nc1ccccc1F | -0.87 | 1.7
CCCc1cc(=O)[nH]c(/N=C(\N)Nc2cc(Cl)ccc2OC)n1 | -0.88 | 1.2
The list goes on:
SMILES | KSHV LANA nucl | Ab BasE inh
CSc1nnc(-c2ccc(S(=O)(=O)N3CCCC3)cc2)n1C | -0.017 | -1.2
CCOC(=O)N1CCC2(CC1)OC(=O)C(C)=C2C(=O)NCc1ccccc1 | 1.7 | -4.2
CNC(=S)N1CCN(c2ccc(Cl)c(Cl)c2)CC1 | 0.94 | 0.0
CCN(CC)S(=O)(=O)c1ccc2c(c1)nc(SC1CCOC1=O)n2CC (configuration not stated) | . | -0.5
c1csc(-c2noc(CNC3Cc4ccccc4C3)n2)c1 | 2.1 | .
COC(=O)c1ccc(CSc2nnnn2Cc2ccccc2)cc1 | -0.91 | 2.6
COc1cc2ncnc(Nc3ccccc3)c2cc1OC | -0.1 | -0.6
O=c1cc(C(F)(F)F)[nH]c(=S)[nH]1 | -0.71 | 0.5
CC(C)CC(=O)Nc1cccc(-c2cn3ccsc3n2)c1 | 0.3 | -3.9
O=C1C2C(C(=O)C3C1C1C=CC3C13CC3)C1C=CC2C12CC2 (configuration not stated) | -1.6 | 3.9
COCCOC(=O)c1c(NC(=O)COC(=O)[C@@H]2CCCN2S(C)(=O)=O)sc(C(N)=O)c1C | . | -1.0
O=C(Sc1cccc2cccnc12)N1CCOCC1 | 1.5 | -2.3
O=C(NCC1CCCO1)c1nn(-c2ccc(Cl)cc2)nc1CO (configuration not stated) | 0.039 | -3.2
N#CC1(C#N)C2C=CC(C2)C1(C#N)C#N | -0.051 | 2.1
O=C(Cn1cnc2ccccc21)NN=C1C2CC3CC(C2)CC1C3 | . | -2.0
CC(C)NC(=O)NC(=O)c1ccccc1 | 0.4 | 0.7
CCSc1nnc2c3cc(Br)ccc3n(C)c2n1 | 0.042 | -1.0
O=C(NC1CCCCCC1)C1=CN2CCS(=O)(=O)N=C2C=C1 | . | 1.1
COC(=O)c1cn(CC(=O)OCC(=O)Nc2ccc(N3CCOCC3)cc2)c2ccccc12 | . | -2.5
Cc1cc(NC(=O)C2c3ccccc3C(=O)N(CC(C)C)C2c2cccs2)no1 (configuration not stated) | -0.99 | 2.1
Cc1cc2oc(=O)cc(CSc3ncccn3)c2cc1Cl | . | 2.5
COc1ccc(-c2cc(C(F)(F)F)nc(SCCC(=O)N3CCN(C)CC3)n2)cc1 | 1.4 | -4.4
O=C(Cn1cnc2c(oc3ccccc32)c1=O)c1ccccc1 | -0.26 | -7.0
Cc1cc(C(=O)NCc2ccc(C(=O)O)o2)c(C)o1 | 0.99 | -0.8
CCN(CC)CC(=O)Nc1ccc(S(N)(=O)=O)cc1 | -0.028 | 3.0

Whole records as entered above.
O=C(NC1CCCCCC1)C1=CN2CCS(=O)(=O)N=C2C=C1 is listed as KSHV LANA nucl: .; Ab BasE inh: 1.1
O=c1cc(C(F)(F)F)[nH]c(=S)[nH]1 is listed as KSHV LANA nucl: -0.71; Ab BasE inh: 0.5

Carrying on:
SMILES | KSHV LANA nucl | Ab BasE inh
Cc1cccc(NC(=O)C(=S)N2CCOCC2)c1C | 0.11 | -0.3
CCOC(=O)N1CCC(N2Cc3cccc(C(=O)N4CCN(c5cccc(Cl)c5)CC4)c3C2=O)CC1 | -1.2 | 1.8
CC(C)(C)c1cc(C(C)(C)C)n(-c2ccc(NC(=O)COCC(=O)O)cc2)n1 | . | 0.0
CC(C)OC(=O)CSc1n[nH]c(=O)[nH]c1=O | -0.78 | 2.9
COC(=O)NC12CC3CC(CC(C3)C1)C2 | . | 2.2
C=CCSc1nc2c(cc1C#N)CCC2 | . | 2.2
CCOc1cc(CCC(=O)NCCn2ccnc2C)on1 | -1 | -0.2
O=C(Nc1ccc(-c2nc3ccc(Br)cc3c(=O)o2)cc1)c1ccco1 | -0.48 | 3.0
CCN(CC)C(=O)c1ccc(N)cc1 | . | 0.9
O=C(CN1C(=O)c2ccccc2C1=O)OCc1cc(=O)n2cc(Br)ccc2n1 | . | 0.5
O=C(OCC(=O)N1CCCC1=O)c1ccc2ncsc2c1 | . | 0.2
CC(=O)Nc1ccccc1OCC(=O)Nc1cc(C)cc(C)c1 | . | 0.2
NC(=S)N/N=C1/C2C3CC4C5C3C1C5C1(OCCO1)C42 (configuration not stated) | . | 3.0
CCCn1c(N)c(N2CCCCC2)c(=O)n(CC(=O)Nc2ccccc2)c1=O | . | -0.3
Cn1c(=O)c2ccccc2n2c(COC(=O)c3cc4c(s3)-c3ccccc3CC4)nnc12 | . | 0.9
COC(=O)c1sc(=S)sc1C(=O)OC | . | 3.9
Cc1nc(C)c(CCC(=O)O)c(=O)[nH]1 | . | -1.3
CN(C)S(=O)(=O)c1ccc(C(=O)OC2=CC(=O)CC(C)(C)C2)cc1 | . | 0.6
C=CCn1nnnc1-c1cccc(Cl)c1 | -0.4 | .
O=C(NC1CCCC1)C1CCN(C(=O)N2CCOc3ccccc32)CC1 | -0.97 | -0.1
COc1nc(NC23CC4CC(CC(C4)C2)C3)nc(OC)n1 | 2.2 | -2.6
O=C(O)CCS(=O)(=O)N1CCOCC1 | . | -0.8
c1ccc2[nH]c(SCCN3CCCC3)nc2c1 | 0.11 | 1.4
CC1=C(C(=O)Nc2ccccc2)C(c2ccncc2)n2ncnc2N1 (configuration not stated) | . | 0.3
Cc1ccc(O)c(C(=O)c2cnc(Nc3nc4ccccc4[nH]3)nc2)c1 | . | -1.6

Reprinted at random: seven compounds from above, in no set order.
SMILES | KSHV LANA nucl | Ab BasE inh
c1ccc2[nH]c(SCCN3CCCC3)nc2c1 | 0.11 | 1.4
Cn1c(=O)c2ccccc2n2c(COC(=O)c3cc4c(s3)-c3ccccc3CC4)nnc12 | . | 0.9
O=C(NC1CCCC1)C1CCN(C(=O)N2CCOc3ccccc32)CC1 | -0.97 | -0.1
C=CCSc1nc2c(cc1C#N)CCC2 | . | 2.2
Cc1cccc(NC(=O)C(=S)N2CCOCC2)c1C | 0.11 | -0.3
CN(C)S(=O)(=O)c1ccc(C(=O)OC2=CC(=O)CC(C)(C)C2)cc1 | . | 0.6
O=C(OCC(=O)N1CCCC1=O)c1ccc2ncsc2c1 | . | 0.2

(more compounds)
SMILES | KSHV LANA nucl | Ab BasE inh
O=C1CCCN1C(=O)CSc1nc2ccccc2o1 | . | -2.0
COc1cc(-c2nc3c4ccccc4c4ccccc4c3[nH]2)ccc1O | . | 3.3
CCN(CC)C(=S)SCc1nc2ccccc2c(=O)[nH]1 | . | -7.8
COc1ccc(-c2nn(CCC#N)c(=O)[nH]2)cc1 | . | 0.0
COc1ccc(NC(=O)c2cc(=O)[nH]c3ccccc23)cc1 | . | 2.2
Cc1cc(-n2c(C)cc(C(=O)COC(=O)C34CCC(=O)N3c3ccccc3S4)c2C)no1 (configuration not stated) | . | 3.3
O=C1CC2(CCCCC2)C(=O)N1Cc1ccc(Cl)cc1 | . | 1.2
COc1ccc(OC)c(NC(=O)C2CCCCC2C(=O)O)c1 (configuration not stated) | -0.71 | -1.2
O=c1ccc(-c2ccc3c(c2)OCO3)n[nH]1 | -1.3 | 2.0
Cc1cc(C)c(C(=O)COc2ccc(-c3nnco3)cc2)cc1C | . | 4.0
CC(=O)N/N=C/c1ccc(Sc2ccc(C)cc2)o1 | -0.26 | -0.1
CCCCNC(=O)C1CCCN(S(=O)(=O)c2ccc(-n3cnnn3)cc2)C1 (configuration not stated) | 1.3 | 0.9
Cc1ccc(OCc2nnc(SCC(=O)Nc3nccs3)n2C(C)C)c(C)c1 | -1.5 | 0.8
CCOc1cc(CNC23CC4CC(CC(C4)C2)C3)ccc1OCc1cccs1 | . | -0.5
O=C(COc1ccccc1)n1c(=O)oc2ccccc21 | -1.4 | -4.1
COc1ccc(-c2nc(CSc3nncs3)cs2)cc1 | . | 0.0
O=C(CSc1ncn[nH]1)c1ccc(O)cc1O | -0.97 | 3.3
NNC(=O)/C(=C\c1ccccc1)NC(=O)c1ccccc1 | . | 11
O=C(NCc1ccc2c(c1)OCO2)c1ccccn1 | . | 0.9
O=C(Cn1c2ccccc2c2ccccc21)Sc1nc2ccccc2s1 | . | 3.3

Only part of the results is shown, so the mix of outcomes need not match the whole.
